# Screening data as filed in PubChem.
# T cruzi inh – blocks replication of Trypanosoma cruzi | T. cruzi beta-gal in NIH3T3, luminescence, 90 h | inhibition, % (concentration not given with the values) | 300,000 compounds, 1.4% hits | AID 1885;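 active = mean inhibition across valid replicates above about 55%, limit read from the data; inconclusive = mean below that limit but half or more replicates reach it; inactive = mean below it, under half of replicates reach it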;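 also: signal also drops with host cell toxicity which is not excluded here; 0% = plate median of DMSO wells and 100% = zero luminescence signal; higher percent means less beta-gal luminescence so fewer parasites; stock transfer was 50 nL into about 50 µL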
# UCH37 DUB inh – human UCH37 deubiquitinating enzyme inhibition; 330,000 compounds, 0.33% hits; inhibition, % (test concentration not listed); Q9Y5K5; purified proteasome/UCH37, Ub-AMC cleavage fluorescence;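 active = mean of two replicates above 20%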;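 also: 0% = compound-free wells with enzyme and 100% = wells lacking proteasome; stock transfer was 100 nL into about 20 µL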
# Target sequence (Q9Y5K5 whole entry, looked up): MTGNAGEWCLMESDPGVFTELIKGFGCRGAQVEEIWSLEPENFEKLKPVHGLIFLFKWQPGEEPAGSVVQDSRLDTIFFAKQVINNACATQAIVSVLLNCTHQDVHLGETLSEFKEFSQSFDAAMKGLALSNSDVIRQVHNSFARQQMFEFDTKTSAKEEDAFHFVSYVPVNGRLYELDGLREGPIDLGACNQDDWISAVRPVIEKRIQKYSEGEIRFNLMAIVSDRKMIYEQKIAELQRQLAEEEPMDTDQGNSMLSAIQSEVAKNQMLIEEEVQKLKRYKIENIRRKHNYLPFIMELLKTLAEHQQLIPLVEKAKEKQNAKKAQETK
#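 Material: human UCH37 enzyme supplied as purified proteasome complex / Amount: 0.15 nM proteasome as dispensed / Buffer or medium: pH 7.4 Tris-HCl (50 mM) with ovalbumin, ATP-MgCl2, DTT / Times: preincubation 30 min, reaction 25 min, room temperature / Technique: AMC fluorescence from Ub-AMC cleavage, excitation 355 nm, emission 460 nm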
# E coli growth – inhibitors of Escherichia coli growth; AID 1053175; 330,000 compounds, 0.21% hits; OD600, 23 h; active compounds read low; OD600 absorbance (no concentration beside the values);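 active = OD600 absorbance below the run mean of sample wells minus 3.6 SD, in any replicate, cut at about 0.56 in these data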;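 also: stock transfer was 300 nL into about 60 µL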
# Bfl-1 A1 inh – inhibitors of the anti-apoptotic protein A1, read as caspase activation; MEF A1-2A-BIM cells, Caspase-Glo 3/7 luminescence, 3 h; percent of clofoctol response, vehicle zero; caspase activation, % (test concentration not listed); 330,000 compounds, 0.066% hits; AID 2462;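 active = over half of replicate activation scores above 10%, or exactly half above 10 with the replicate mean above 10; inconclusive = replicate mean below 10 yet half the replicates above 10; inactive = over half of replicates below 10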;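 also: wells of about 30 µL received 50 nL stock; many hits fall short of the cut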
# rRNA inh HTS – inhibitors of bacterial rRNA selective over humanized ribosomes; AID 720706; E. coli WT GFP vs humanized-ribosome RFP mutants, fluorescence, 24 h; active compounds read low; DMSO median 0, no signal -100; 350,000 compounds, 1.6% hits; GFP signal change (wild-type ribosome), % (test concentration not listed);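 active = significant combined selectivity score with lowered wild-type GFP, culture density cut under 30%, mutant RFP and density less affected; inactive = any of these conditions unmet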; also: one replicate is shown; some compounds called inactive have numbers as strong as hits
# Beta apoptosis – beta cell apoptosis inhibition | INS-1E cytokine-induced death, ATP luminescence, 48 h; percent of positive-control rescue, neutral wells zero | protection from apoptosis, % (concentration not given with the values) | 300,000 compounds, 0.8% hits;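 active = all replicates at 75% or more, or half of them and the mean; inconclusive = half reach 75% but not the mean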;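 also: 0% = cytokine-treated negative control wells and 100% = positive control rescue; higher means more ATP so stronger rescue from cytokine killing; wells of about 40 µL received 100 nL stock; the first replicate is given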
# FGF22 binding – FGF22 (human) thermal shift binding | Q9HCT0 | recombinant FGF22 thermal shift, SYPRO orange fluorescence; percent of sucrose octasulfate shift, DMSO zero | calls only at 9.99 µM | 340,000 compounds, 1.5% hits;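 active = melting point raised past a set limit in the mean and every replicate; inconclusive = no clear call; three in four hits are not shown here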
# Target sequence (Q9HCT0 whole entry, looked up): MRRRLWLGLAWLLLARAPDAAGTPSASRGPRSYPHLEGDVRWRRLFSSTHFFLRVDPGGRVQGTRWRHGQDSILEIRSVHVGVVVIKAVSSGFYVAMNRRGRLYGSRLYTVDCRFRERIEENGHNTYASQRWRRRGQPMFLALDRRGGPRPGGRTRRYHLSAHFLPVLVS
# AF4-AF9 inh – blocks AF4 peptide binding to human AF9; AlphaScreen, biotin-AF4 peptide binding to FLAG-AF9; 350,000 compounds, 0.47% hits; inhibition, % at 10 µM; P42568;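 active = every replicate reaching a set inhibition limit, whatever the replicate mean, cut at about 25% in these data; inconclusive = mean inhibition reaches that limit but some replicates miss it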;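 also: 0% = plate neutral control median and 100% = total signal loss; the record names both 10 and 1 µM as test concentration; the first replicate is given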
# Target sequence (P42568 whole entry, looked up): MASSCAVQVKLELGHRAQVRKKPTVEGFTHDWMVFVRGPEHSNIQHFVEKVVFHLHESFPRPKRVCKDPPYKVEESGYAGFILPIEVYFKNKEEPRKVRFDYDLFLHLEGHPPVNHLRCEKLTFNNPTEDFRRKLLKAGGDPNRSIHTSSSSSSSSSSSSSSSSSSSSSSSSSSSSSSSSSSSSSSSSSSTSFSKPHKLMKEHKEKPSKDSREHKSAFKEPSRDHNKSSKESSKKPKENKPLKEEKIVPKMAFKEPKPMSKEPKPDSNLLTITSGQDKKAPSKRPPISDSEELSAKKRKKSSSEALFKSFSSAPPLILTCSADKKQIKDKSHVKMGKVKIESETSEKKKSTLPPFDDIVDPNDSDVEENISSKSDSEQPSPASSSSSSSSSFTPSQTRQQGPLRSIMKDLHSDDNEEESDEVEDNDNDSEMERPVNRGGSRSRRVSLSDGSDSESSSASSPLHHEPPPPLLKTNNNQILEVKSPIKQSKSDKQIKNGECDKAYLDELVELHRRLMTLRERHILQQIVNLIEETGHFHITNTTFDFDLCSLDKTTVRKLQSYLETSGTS
# rRNA inh HTS OD600 – recorded beside rRNA inh HTS, whose call it bears; OD600 change, %; measured here: OD600 growth;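 optical density of the mix in the first replicate; 0 = DMSO median and -100 = no signal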
# rRNA inh HTS RFP – also measured in rRNA inh HTS; calls as there; RFP signal change, %; measured here: RFP humanized mutant strains;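 first replicate; 0 = DMSO median and -100 = no signal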
# Numbers without * were called inactive; i = inactive; ? = inconclusive; · = no result given. Only part of the results is shown; the hit share may differ from the screen's.
no.	Molecule	rRNA inh HTS	rRNA inh HTS RFP	rRNA inh HTS OD600	Bfl-1 A1 inh	FGF22 binding	AF4-AF9 inh	E coli growth	Beta apoptosis	UCH37 DUB inh	T cruzi inh
1	COc1cc2nc(SCc3c(C)noc3C)n(CCC3=CCCCC3)c(=O)c2cc1OC	·	·	·	-1.0	·	·	0.72	·	4.9	4
2	Cc1ccc(S(=O)(=O)Nc2ccc(N3CCOCC3)cc2)cc1[N+](=O)[O-]	·	·	·	0.3	i	5.6	0.69	2	3.5	7
3	COc1ccc(S(=O)(=O)N2CC(=O)Nc3ccccc32)cc1	10	1.1	6	?	i	-9.4	0.7	·	3.2	-7
4	COc1ccc(CCNC(=O)CSc2nc3[nH]ncc3c(=O)n2-c2ccc(Br)cc2)cc1OC	8	-0.2	-5	-0.2	i	-2.9	0.71	-7	3.7	10
5	Nc1ccc(-c2cc3ccccc3oc2=O)cc1	-3	-2.0	6	-3.2	i	-3.1	0.61	·	-10	23
6	Cc1cc(C)nc(SCC(=O)Nc2sc3c(c2C#N)CCC(C)C3)n1 (centres undefined)	·	·	·	0.1	·	·	0.74	55	2.5	7
7	CCCC(OC(=O)CC1Sc2ccccc2NC1=O)C(=O)NCc1ccco1 (centres undefined)	·	·	·	-0.7	·	·	0.72	3	3.0	-2
8	CN(c1ccccc1C(=O)Nc1ccc2ccccc2c1)S(C)(=O)=O	-6	-0.9	-2	-0.4	i	-2.5	0.65	0	-0.5	-4
9	C/C(=C\c1ccc(N)cc1)c1nc2ccccc2[nH]1	-2	-1.2	-4	-3.5	i	6.9	0.61	-1	-2.7	-2
10	COc1ccc(NC(=O)N2CCCCC2)cc1	·	·	·	-0.9	·	·	0.69	-6	-3.0	-3
11	COc1cc(/C=C/C(=O)OCc2c(C)noc2C)ccc1OC(F)F	-18	1.9	-8	?	i	-0.3	0.66	-2	-1.6	-1
12	COc1ccccc1NC(=O)COc1ccccc1C(=O)c1cnn(-c2ccccc2)c1	-11	0.6	-11	-5.2	i	-0.3	0.72	-5	37*	15
13	CCOC(=O)CN1C(=O)c2ccccc2C1=O	·	·	·	-0.1	·	·	0.68	-1	-0.1	1
14	O=C(O)CN(c1ccccn1)S(=O)(=O)c1ccccc1	·	·	·	0.6	·	·	0.77	-1	-23	-22
15	CC(NCc1ccc2c(c1)OCO2)C(=O)NC1CCCc2ccccc21 (centres undefined)	·	·	·	-0.5	·	·	0.71	-7	4.6	7
16	O=C(c1ccc(Cl)cc1Cl)N1CCN(c2ccccn2)CC1	-13	1.7	-18	-0.2	i	-3.1	0.65	-3	1.9	-5
17	Cc1sc2ncnc(N3CCC(C(=O)NNC(=O)COc4ccccc4F)CC3)c2c1C	-9	-1.7	-27	-0.4	i	-33	0.69	-2	-1.1	-6
18	C#Cc1ccc([C@H]2C=C(C(=O)NCc3nc4ccccc4[nH]3)O[C@@H](OCC)[C@@H]2CCCO)cc1	·	·	·	?	·	·	·	-2	3.1	13
19	CC(OC(=O)c1cc(=O)[nH]c2ccccc12)C(=O)N1C(C)CCCC1C (centres undefined)	9	1.1	9	·	i	-1.4	0.71	·	-19	·
20	Nc1nc(C(=O)N2CCOCC2)nn1S(=O)(=O)c1ccccc1	·	·	·	0.3	·	·	0.67	-4	4.0	-10
21	COCCn1nnnc1SCC(=O)c1ccccc1	·	·	·	-0.5	·	·	0.66	-2	-1.2	-7
22	CCc1ccc2cccc3c2c1N=CN3C	-10	22	-4	0.0	·	5.6	0.58	·	2.1	1
23	CC(c1ccccc1)n1cnc2ccccc21 (centres undefined)	·	·	·	0.6	·	·	0.64	3	2.7	-2
24	Cn1c(=O)oc2cc(S(=O)(=O)N3CCCC(C(=O)NCc4ccc5c(c4)OCO5)C3)ccc21 (centres undefined)	15	0.8	24	0.1	i	3.3	0.75	0	2.4	·
25	Cn1nc(-c2ccc(S(N)(=O)=O)s2)cc1C(F)(F)F	-10	-4.6	-9	0.0	i	-4.3	0.65	-3	4.0	-6
26	Cc1ccc(NNC(=O)c2cc(C)on2)c(C)c1	19	3.5	8	0.5	i	-0.4	0.69	0	1.8	23
27	O=C(COC(=O)c1ccc(S(=O)(=O)N2CCCCC2)cc1)Nc1ccccc1	·	·	·	1.1	i	-6.4	0.68	3	1.9	·
28	Cc1cccc(C)c1NC(=O)N1C2CCC1CC(O)(c1cccnc1)C2 (centres undefined)	7	-2.9	4	0.2	i	-2.0	0.7	-7	2.9	0
29	CSc1ccc(CNc2nc3ccccc3n3cnnc23)cc1	11	-1.2	6	0.7	i	-18	0.71	5	-9.8	8
30	O=C(c1cc2cc(F)ccc2[nH]1)N1CCc2ccccc2C1	-5	1.8	-1	-1.0	i	-4.3	0.7	0	-0.3	1
31	O=C1CCC[C@@H]2Cc3[nH]c4c(Cl)ccc(Cl)c4c3[C@@H]3CCN1[C@H]23	-21	-17	-41	-0.1	i	2.1	·	-9	5.0	64*
32	COC(=O)C(O)(CC(=O)Nc1ccc(Cl)cc1F)C(F)(F)F (centres undefined)	·	·	·	-0.6	·	·	0.64	-1	-1.8	3
33	CCN(CC(=O)NCc1cccs1)C(=O)c1cccc(S(=O)(=O)N2CCc3ccccc32)c1	-22	-1.4	-23	2.8	i	-3.1	0.68	3	-2.4	16
34	CC(C)Oc1cccc(C(=O)Nc2ccc(CN3CCOCC3)cc2)c1	3	-10	5	0.2	i	2.5	0.65	0	5.7	3
35	Cc1cc(-c2onc(C)c2C(=O)O)no1	9	0.7	3	-0.9	i	1.3	0.7	-4	6.8	-6
36	COc1ccccc1C(=O)Nc1ccccc1N1CCOCC1	·	·	·	0.0	·	·	0.71	-3	3.5	11
37	CCC(=O)Nc1ccnc(-c2cccnc2)n1	·	·	·	-0.3	·	·	0.66	0	2.4	-18
38	O=C(Nc1ccc2c(c1)OCCO2)c1cccnc1	·	·	·	-4.5	·	·	0.69	0	2.1	7
39	Cc1cnc(NC(=O)CSc2nnc(COc3c(C)cccc3C)o2)s1	-2	6.1	-3	-0.4	i	0.0	0.78	-1	2.4	-1
40	Cc1cc(C)c(S(=O)(=O)c2ccccc2C)c(SCC(C)C)n1	·	·	·	-0.3	·	·	0.73	11	1.0	10
41	CCOc1ccc(S(=O)(=O)Nc2ccc3c(c2)c2c(n3S(=O)(=O)c3ccc(OCC)cc3)CCCC2=O)cc1	·	·	·	1.4	·	·	0.69	-2	2.6	33
42	C=CCOC(=O)C1=C[C@@H](c2ccccc2)C[C@@H](OCc2ccc(CO)cc2)O1	3	-2.5	3	1.1	i	1.8	·	3	0.5	7
43	CC1CCN(c2ccccc2NC(=S)NC(=O)c2ccco2)CC1	·	·	·	-0.1	·	·	0.77	-3	-6.7	35
44	COc1cccc(CN(CC(=O)NC2CCCC2)C(=O)c2csnn2)c1	2	0.2	8	?	i	-0.2	0.7	-1	5.3	4
45	CCN(CC)CCNC(=O)c1ccc(NC(=O)C2CC(=O)N(CCc3ccc(OC)c(OC)c3)C2)cc1 (centres undefined)	4	0.3	9	0.3	i	6.1	0.68	0	2.7	·
46	CC(C)CNC(=O)c1cccc(NC(=O)c2ccccc2-c2ccccc2C(=O)O)c1	7	0.4	8	0.8	i	4.4	0.7	-4	0.4	-2
47	Clc1cccc(Cl)c1CSc1nnc2ccccn12	1	-0.2	14	-1.4	i	14	0.69	-2	-2.0	-8
48	COC(=O)CN1C(=O)N/C(=C/c2ccc(OC)c(C)c2OC)C1=O	9	-0.4	12	0.9	i	-0.6	0.71	·	-4.0	-14

# Record cards, from the list above:
# CC(C)CNC(=O)c1cccc(NC(=O)c2ccccc2-c2ccccc2C(=O)O)c1 across the screens: rRNA inh HTS = 7; rRNA inh HTS RFP = 0.4; rRNA inh HTS OD600 = 8; Bfl-1 A1 inh = 0.8; FGF22 binding = i; AF4-AF9 inh = 4.4; E coli growth = 0.7; Beta apoptosis = -4; UCH37 DUB inh = 0.4; T cruzi inh = -2
# CC(OC(=O)c1cc(=O)[nH]c2ccccc12)C(=O)N1C(C)CCCC1C (centres undefined) across the screens: rRNA inh HTS = 9; rRNA inh HTS RFP = 1.1; rRNA inh HTS OD600 = 9; Bfl-1 A1 inh = ·; FGF22 binding = i; AF4-AF9 inh = -1.4; E coli growth = 0.71; Beta apoptosis = ·; UCH37 DUB inh = -19; T cruzi inh = ·

# Following part:
no.	Molecule	rRNA inh HTS	rRNA inh HTS RFP	rRNA inh HTS OD600	Bfl-1 A1 inh	FGF22 binding	AF4-AF9 inh	E coli growth	Beta apoptosis	UCH37 DUB inh	T cruzi inh
49	Cc1cc(NS(=O)(=O)c2ccc(NC(=O)c3ccc([N+](=O)[O-])s3)cc2)nc(C)n1	2	-2.3	3	-0.1	i	3.4	0.71	-6	8.1	·
50	O=C(CN1CCC(Cc2ccccc2)CC1)NC(=O)NCc1ccccc1	3	-1.9	5	0.0	i	-2.1	0.65	-2	1.5	-2
51	COc1ccccc1N1CCN(C(=O)c2cc3c(-c4ccc(Cl)cc4)nn(C)c3s2)CC1	1	2.2	11	0.0	i	-2.4	0.74	11	6.1	35
52	COc1cccc(NC(=O)C2CCN(S(=O)(=O)c3ccc4c(c3)C(C)(C)C(=O)N4C)CC2)c1	3	1.9	3	0.9	i	-0.1	0.72	-1	-0.4	19
53	Cc1ccc(/C=N/NC(=O)c2nnn(-c3nonc3N)c2CSc2ccccc2)s1	0	1.8	-1	-0.3	·	0.7	·	-3	·	3
54	Cc1ccc(NC(=O)c2cc(=O)[nH]c3ccc(S(=O)(=O)N4CCOCC4)cc23)cc1	15	1.2	22	1.1	i	-0.1	0.67	-6	2.2	·
55	CNc1nc(-c2ccccc2)nc(-c2ccccc2)c1C#N	·	·	·	0.1	·	·	0.71	6	1.8	6
56	Nc1ccc(OCCCc2c(N)nc(N)nc2N)cc1	8	-4.1	22	-1.2	i	9.0	·	0	·	-3
57	O=C(Nc1ncn[nH]1)c1ccc([N+](=O)[O-])cc1[N+](=O)[O-]	·	·	·	1.1	·	·	0.68	2	1.2	3
58	Cc1ccc(-n2ncc3c(SCc4ccccc4)ncnc32)cc1	·	·	·	-0.6	·	·	0.68	·	-15	6
59	O=[N+]([O-])c1ccc(N2CCN(C(=S)c3cccc([N+](=O)[O-])c3)CC2)cc1	-3	-0.8	7	0.0	i	2.6	0.66	5	6.2	11
60	CCn1c(SCC(=O)Nc2cc(NC(C)=O)ccc2OC)nnc1-c1cccnc1	·	·	·	0.2	·	·	0.68	-7	2.0	0
61	CCc1cccc(NC(=O)CN(C)C2=NS(=O)(=O)c3ccccc32)c1	-5	-0.2	-3	-0.8	i	0.9	0.64	3	0.2	·
62	CCOc1ccc(C(=O)Nc2ccc(NC(=O)c3ccccc3)c(C)c2)cc1[N+](=O)[O-]	12	-0.5	10	-0.1	i	2.2	0.69	·	5.0	-1
